Screens (PubChem)
TRPML1 ag = activates the human TRPML1 channel. Q9GZU1. TRPML1-expressing cells, Ca2+ dye fluorescence, FDSS; host cell line not named in the record; reference of the full effect not given here. activation, % (concentration not given with the values). hit rate 0.12% among 410,000. AID 624414; in the data active = activation above about 50%; inconclusive = about 30% to 50%; inactive = below about 30%; further: 0% is about no effect; the text of the record puts the active cut at 80%
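TRPML1-DL cells, Tet-induced overnight (~16 h, 37 degrees C), loaded 45-90 min at room temperature with Ca8 no-wash calcium dye plus quencher. FDSS fluorescence: 10 s baseline, compound pin-transfer, 110 s agonist read, then EC80 54-4 (4uM final) and 110 s antagonist read.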
PINK1 expr mod = modulators of PINK1 expression | PINK1 immunofluorescence, high-content cytometry, 24 h | Potency, µM (top dose mostly 76.6 µM), for inactives: top-dose activation (PINK1 increase), usual class: activators | hit rate 0.2% among 410,000 | AID 624263; active = well fitted activation curve with a large enough effect; inconclusive = small, poorly fitted or top-dose-only effect; inactive = flat fitted curve, though single readings scatter; cell line not stated here;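 further: potency means the concentration at half of the fitted maximal effect; % of control where 0% means no effect; nearly all actives have a fitted effect of over 65% in size; a mitochondrial uncoupler was the plate control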
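Measures PINK1 amount and localization on or inside mitochondria by immunofluorescence. Stable cells get compounds at 5 concentrations for 24 hours before fixation and staining; CCCP controls included.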
Menin-MLL FL inh = displaces fluorescein MLL peptide from human menin; Fluorescence polarization, fluorescein-MLL peptide displacement from menin; FP activity change, % at 61.4 µM; 290,000 tested, under 10 active; AID 1766; inconclusive = falling polarisation curve, or a change in total fluorescence; inactive = total fluorescence flat and polarisation flat or rising; no compound was filed as active; the % refers to the polarisation; negative = inhibition;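 further: % of control where 0% means no effect; inhibitors lower the polarisation; unlabelled MLL peptide was the positive control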
TRPV1 PAM = potentiators of human vanilloid receptor 1 (TRPV1) | TRPV1-expressing cells, Fluo-8 calcium influx, capsaicin EC20 potentiation; host cell line not named in the record; control for the full effect not named in the record | potentiation, % at 8.33 µM | hit rate 0.02% among 320,000 | AID 540277; active means potentiation above 80%; inconclusive means 30% to 80%; inactive means below 30%; further: 0% is about no effect
Target sequence (Q8NER1 whole entry, looked up): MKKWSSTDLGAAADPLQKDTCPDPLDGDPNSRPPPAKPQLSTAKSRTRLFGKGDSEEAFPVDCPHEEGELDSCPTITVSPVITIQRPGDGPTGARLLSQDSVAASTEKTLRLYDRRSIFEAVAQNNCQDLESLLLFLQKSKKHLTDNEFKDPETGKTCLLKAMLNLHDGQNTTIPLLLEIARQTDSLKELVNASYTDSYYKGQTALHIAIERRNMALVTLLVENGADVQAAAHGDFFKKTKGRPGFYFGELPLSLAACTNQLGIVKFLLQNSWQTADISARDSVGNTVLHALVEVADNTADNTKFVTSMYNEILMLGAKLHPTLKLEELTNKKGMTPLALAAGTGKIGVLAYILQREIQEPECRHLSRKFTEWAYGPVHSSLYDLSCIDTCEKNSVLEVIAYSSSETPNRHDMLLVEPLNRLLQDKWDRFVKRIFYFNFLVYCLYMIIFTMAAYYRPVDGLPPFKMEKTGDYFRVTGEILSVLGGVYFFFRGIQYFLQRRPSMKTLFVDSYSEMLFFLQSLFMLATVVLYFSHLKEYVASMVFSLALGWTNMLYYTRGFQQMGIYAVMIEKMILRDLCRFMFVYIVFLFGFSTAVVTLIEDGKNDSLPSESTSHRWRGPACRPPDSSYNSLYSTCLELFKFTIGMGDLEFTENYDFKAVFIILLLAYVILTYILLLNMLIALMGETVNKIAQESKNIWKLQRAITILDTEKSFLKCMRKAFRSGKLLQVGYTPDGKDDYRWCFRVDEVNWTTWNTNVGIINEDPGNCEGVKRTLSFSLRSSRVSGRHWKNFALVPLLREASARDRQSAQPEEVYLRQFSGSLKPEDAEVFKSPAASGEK
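Cells expressing TRPV1 were dye-loaded with Fluo-8 and read kinetically: 10 s baseline, 3 min after compound (agonist portion), then 2 min after EC20 capsaicin (allosteric enhancer portion). Calcium-bound dye fluorescence at 480/520 nm.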
ClpP mod = qHTS Assay for Activators of ClpP | ATP-dependent Clp protease proteolytic subunit (Bacillus subtilis (strain 168)), P80244 | purified B. subtilis ClpP, FRET peptide cleavage, 20 min | Potency, µM (highest dose often 57.5 µM), for inactives: top-dose activity change, negative = active | hit rate 1.9% among 340,000; active = well fitted falling curve with a large enough effect; inconclusive = small, poorly fitted or top-dose-only effect; inactive = no such curve, though single readings can be large or run the other way; further: potency means the concentration at half of the fitted maximal effect; the source files actives as falling curves though it sought activators and does not explain the sign; nearly all actives have a fitted effect of over 65% in size; many hits overshoot -100%
Target sequence (P80244 whole entry, looked up): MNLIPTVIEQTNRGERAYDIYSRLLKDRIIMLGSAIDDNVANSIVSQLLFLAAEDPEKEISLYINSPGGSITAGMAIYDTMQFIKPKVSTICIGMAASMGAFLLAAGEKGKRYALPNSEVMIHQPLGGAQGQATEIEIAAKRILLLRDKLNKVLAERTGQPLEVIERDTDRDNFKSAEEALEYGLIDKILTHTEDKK
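FRET quenching reversal measured ClpP activation: 10 microg/mL B. subtilis ClpP at pH 8 with the FRET-FV decapeptide, read at 430 nm after 320 nm excitation. The 20-min minus 0-min signal was scaled between DMSO/no-enzyme wells and ADEP (5.8 microM final).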
Sfp inh = blocks B. subtilis Sfp PPTase activity | Biochemical Sfp PPTase activity, qHTS | Potency, µM, for the others: max response, negative = inhibition, actives largely listed as inhibitors | hit rate 3.5% among 310,000; active means well fitted inhibition curve with a large enough effect; inconclusive means small, poorly fitted or top-dose-only effect, or another doubt; inactive means no such curve, though single readings can be large or run the other way;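 further: the enzyme is Sfp with the accession as filed and its product quenches rhodamine fluorescence; potency means the concentration at half of the fitted maximal effect; 0% = enzyme reaction without inhibitor and -100% = no enzyme wells; top concentration of the series not given in the record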
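Reaction rates are the 30-min fluorescence difference (ex 525, em 598 nm) in wells containing 15 nM Sfp, 5 uM rhodamine-CoA and 12.5 uM BHQ-2-YbbR at pH 7.6 with 10 mM MgCl2.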
TRPML1 blocker = inhibitors of human TRPML1 channel | TRPML1-inducible cells, Ca2+ dye fluorescence, FDSS; hits give low values; inhibition of EC80 agonist-evoked calcium signal | hit rate 0.02% among 390,000 | activity change, negative = inhibition, % (concentration not given with the values) | AID 624415 | Q9GZU1; in the data active means activity change below about -50%; inconclusive means about -30% to -50%; inactive means above about -30%;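 further: stimulus is agonist 54-4 at its EC80 concentration; on the % scale 0 is the no-effect control and ±100 the full control effect; compound concentration not given in the record; the text of the record puts the active cut at -80%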
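Calcium fluorescence in TRPML1-DL cells induced overnight with Tet: a 110 s read after compound pin addition, then a 110 s antagonist read after challenge with 54-4 at 4 uM final (EC80).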
Active calls of the source: *; ? = inconclusive; . = no result given; [ ] = remark or other dose.

SMILES | TRPML1 ag | PINK1 expr mod | Menin-MLL FL inh | TRPV1 PAM | ClpP mod | Sfp inh | TRPML1 blocker
CSc1nc2ccc(NC(=O)CSc3nnc(N)s3)cc2s1 | 0.8 | . | 1.6 | -26 | -1.9% | -4% | 1
Oc1c(C=Nc2ccccc2Cl)[nH]c2ccccc12 | -0.6 | 0.4% | 0.6 | -11 | . | ? | 4
COc1ccccc1NC(=O)c1ccc(NC(=O)C2COc3ccccc3O2)cc1 (centres undefined) | 2.5 | 1.6% | 1.7 | -2 | . | 24% | 23
CCCCC(CC)C(=O)NCc1ccccc1OC (centres undefined) | 0.7 | 0.5% | 10 | 7 | 0.6% | 9% | -5
COc1c(Cl)ccc(Cl)c1C(=O)OCC(=O)O | 1.1 | 0.9%[38.3 µM] | -0.8 | 15 | -0.7% | 7% | 37
O=C(O)c1cccc(N/N=C/c2cccs2)c1 | 0.8 | 0.2% | 7.9 | 2 | 0.7% | 0% | -9
O=C(COC(=O)COc1ccc(Cl)cc1Br)NCCC1=CCCCC1 | 3.3 | 0.3% | . | -1 | -0.2% | . | 3
N#Cc1c(-c2ccccc2)nc(SCc2cccc(C(F)(F)F)c2)[nH]c1=O | 3.0 | 0.9% | -10 | 23 | -8.7% | -7% | 3
Cc1cc(C)nc(NS(=O)(=O)c2ccc(NS(=O)(=O)c3ccc(C#N)cc3)cc2)n1 | -0.2 | 2.0% | . | 0 | 2.2% | 5% | 9
CN(Cc1ccccc1Cl)C(=O)C1CCC(=O)N(CCc2cccc(F)c2)C1 (centres undefined) | 0.5 | 3.7% | . | 3 | -1.5% | 4% | 6
COc1cccc(C(=O)OCC(=O)NC(C)CCc2ccccc2)c1O (centres undefined) | 1.2 | 0.9% | -3.9 | -4 | 0.8% | 5% | -19
COP(=O)(OC)c1nc(-c2cccc3ccccc23)oc1NCc1ccccc1 | 0.9 | 8.7% | 3.5 | -7 | -11% | ? | 0
CCCc1cc(=O)[nH]c(SCC(=O)Nc2nc(-c3ccccc3)cs2)n1 | 0.7 | 0.4% | 0.5 | ? | . | -5% | 17
Cc1ccc(C2=[N+]([O-])C3(CCCCC/C3=N\NC(N)=O)N(O)C2(C)C)o1 (centres undefined) | -0.9 | -1.0% | 1.4 | 13 | 1.6% | 2% | -1
COc1ccc(S(=O)(=O)Nc2cc(C)on2)cc1 | 0.4 | 5.8% | 0.4 | -1 | . | 11% | 1
CCOC(=O)c1cccc(NC(=O)c2cc(C)nn2-c2ccccc2)c1 | 0.1 | 5.3% | 2.6 | 11 | 1.7% | 21% | 2
COc1ccccc1N1CCN(C(=O)c2cnc(N3CCOCC3)c3ccccc23)CC1 | -0.3 | 6.1% | . | . | -16% | . | 0
CS/C(=N\S(=O)(=O)c1cccs1)Nc1cccc(Cl)c1C | 4.0 | -1.5% | 0.7 | 1 | 1.1% | 16% | -2
CC(C)CC(OC(=O)c1cccs1)C(=O)NCC1CCCO1 (centres undefined) | 0.6 | -2.9% | 1.5 | -22 | -2.4% | 8% | 9
CC1CN(CCCCOc2ccc(C(C)C)cc2)CC(C)O1 (centres undefined) | -0.4 | 5.9% | -0.3 | 4 | -0.1% | -26% | -11
O=C(N/N=C/c1c[nH]c2ccccc12)c1sc2ccccc2c1Cl | 1.4 | 2.5% | 4.7 | 20 | -1.3% | -2% | 1
COc1ccccc1C(=O)N(Cc1ccco1)Cc1ccccc1F | 2.9 | 0.8% | . | . | -3.1% | . | 11
Clc1ccc(-c2cc(-c3ccccn3)on2)c(Cl)c1 | 2.1 | 1.3% | -0.8 | 14 | 3.0% | 21% | -4
Cc1csc(N/N=C/c2ccc(O)c([N+](=O)[O-])c2)n1 | -0.7 | -0.2% | 1.8 | 13 | 1.0% | 32µM* | 6
COc1ccc(NC(=O)C2CCCN(c3cc(C)nc4ncnn34)C2)cc1 (centres undefined) | -0.7 | -1.2% | -0.7 | 5 | . | 2% | -2
CC1=C(C(N)=O)C(c2cccnc2)n2nc(-c3cccc(Cl)c3)nc2N1 (centres undefined) | 0.1 | 7.2% | 0.4 | 1 | -0.3% | -3% | -3
C/C(=C\c1cc(C(=O)O)c(C)o1)CO | 2.8 | -2.7% | 2.4 | -3 | -5.0% | 9% | 33
CCCS(=O)(=O)NC(=O)C1(C)CCCN(C(=O)c2ccc3c(c2)OCO3)C1 (centres undefined) | 0.0 | 1.2% | . | . | 1.5% | . | .
CC(=O)NCc1ccc(S(=O)(=O)N2CCCN(C)CC2)cc1 | 0.3 | 1.0% | -1.2 | -3 | . | -26% | 7
Cc1ccc(NC(=O)C2CCN(C(=O)NC3CCCCC3)CC2)cc1 | 0.2 | -1.1% | -2.0 | 14 | 0.7% | 6% | 4
N#CCC(=O)N/N=C/c1ccc(SCC(=O)Nc2ccccc2)o1 | 1.3 | 1.7% | 5.2 | 3 | -0.3% | 6% | 3
CSc1nc(C)nc(C2CC2)c1C#N | -0.1 | 6.1% | 5.6 | -5 | -3.2% | 10% | 10
CC1=CCC2C(=O)N(c3cccc(C(=O)N(C)C4CCCCC4)c3)C(=O)C2C1 (centres undefined) | 0.3 | 1.8% | 2.7 | -12 | 1.6% | 6% | 6
CCCCNC(=O)Cc1c(O)c2ccccc2[nH]c1=O | -0.3 | -1.2% | 0.8 | -33 | 20µM* | -12% | -12
Cc1cc(C)cc(NC(=S)Nc2ccc(Cl)c(Cl)c2)c1 | -0.7 | ? | 0.3 | -2 | . | 16% | -1
O=C(/C=C/c1ccco1)NCc1ccco1 | -0.1 | -1.7% | 9.8 | -14 | . | -25% | -13
O=C(NCCCN1CCOCC1)c1ccc(CS(=O)(=O)Cc2ccc(Cl)cc2)o1 | -0.4 | 0.7%[38.3 µM] | 6.7 | -7 | -1.2% | 12% | -5
COc1ccc(S(=O)(=O)N2CCC3(CC2)OCCN3S(=O)(=O)c2ccc(OC)cc2)cc1 | 1.5 | -0.3% | . | 2 | -3.2% | . | -9
CC1(C)CC(=O)C2=C(C1)N(C1CCCCC1)C(=O)C2(O)C(F)(F)F (centres undefined) | -0.4 | . | 4.4 | 0 | 0.3% | 22% | -17
CCOc1ccc(S(=O)(=O)N2CCCC(C(=O)NCc3ccncc3)C2)cc1 (centres undefined) | 0.4 | 2.0% | . | -2 | 0.3% | 12% | -2
COc1ccc(S(=O)(=O)N2CCN(C(=O)Cc3ccsc3)CC2)cc1 | 0.5 | -0.5% | . | 14 | 1.5% | . | 17
Cc1ccccc1CNC(=O)c1ccccc1N | -0.6 | -1.0%[38.3 µM] | 5.0 | 0 | 10µM* | 18% | -8
COc1ccc(C(=O)NCc2c(C)nn(Cc3ccccc3)c2C)cc1S(=O)(=O)N1CCOCC1 | 1.0 | 5.2% | . | 6 | -2.6% | . | -12
CCSc1nc2ccccc2n1CC(=O)N1CCOCC1 | 0.9 | 0.3% | 4.5 | -1 | 0.9% | -2% | -5
CCOc1ccc(CNc2ccc3c(c2)nc(C)n3C)cc1 | -0.4 | 6.1% | 7.7 | 13 | -14% | 6% | 1
COCCNC(=O)c1ccc(-c2nc(CN3CCc4ccccc43)c(C)o2)cc1 | 3.1 | 12% | . | . | -4.2% | . | -11
Cc1ccccc1-c1cc(C(=O)NCC2CC2)nn1CC1CC(c2cccc([N+](=O)[O-])c2)=NO1 (centres undefined) | 0.2 | -0.2% | . | 0 | -0.2% | . | 2
CN(CC(=O)NC(=O)Nc1ccccc1F)Cc1ccccc1 | 0.2 | 2.1% | . | -15 | -1.1% | . | 14
O=C(CC1SC(N2CCOCC2)=NC1=O)Nc1ccc(F)cc1 (centres undefined) | 0.2 | 0.9% | . | . | -11% | . | -1
Cc1ccc(N2CC(C(=O)OCC(=O)Nc3ccc(F)cc3F)CC2=O)cc1 (centres undefined) | -1.7 | -0.7% | . | 1 | -1.8% | . | -8
Next part
SMILES | TRPML1 ag | PINK1 expr mod | Menin-MLL FL inh | TRPV1 PAM | ClpP mod | Sfp inh | TRPML1 blocker
O=C(NCc1ccc2c(c1)OCO2)c1ccc(CSCc2cccc(Cl)c2)o1 | 2.6 | -1.1% | -1.1 | -6 | -6.1% | -1% | -27
COCCCNc1ccn2nc(-c3ccccc3)cc2n1 | -0.7 | 5.2% | . | . | 4.7% | . | .
O=C(O)CSCCOc1ccc(OCCSCC(=O)O)cc1 | 0.4 | 1.4% | 3.6 | 6 | -19% | 7% | -3
CC1(C(=O)O)CCCN(C(=O)c2cc3ccccc3s2)C1 (centres undefined) | -0.1 | 0.4% | . | . | -1.7% | . | -5
CCOc1ccc2nc(NC(=O)C3=NN(c4ccccc4)C(=O)CC3)sc2c1 | 0.6 | 5.0% | -2.3 | -14 | 1.0% | 4% | -6
Cc1cc(C)c(S(=O)(=O)NCC(c2ccco2)N2CCOCC2)c(C)c1 (centres undefined) | -0.5 | 3.1% | . | . | 1.6% | . | -6
COc1ccc(N2CC(NC(=O)c3ccc(S(=O)(=O)N4CCCC4)cc3)CC2=O)cc1 (centres undefined) | 0.1 | 1.5% | . | . | -0.8% | . | 0
Cc1cc(/C=C\c2nc(O)c([N+](=O)[O-])c(=O)[nH]2)c(C)n1-c1ccccc1 | -0.1 | -1.7% | -0.2 | 3 | . | -4% | 2
Cc1oc(-c2cccc(F)c2)nc1CN1CCCCC1CCn1cccn1 (centres undefined) | 1.1 | -0.7% | 0.1 | 5 | -1.3% | -3% | -9
CC(C)c1nn2c(=O)cc(COC(=O)COc3ccccc3F)nc2s1 | -0.5 | 2.1% | . | . | -2.1% | . | -19

Random excerpt: 4 records from the list.
SMILES | TRPML1 ag | PINK1 expr mod | Menin-MLL FL inh | TRPV1 PAM | ClpP mod | Sfp inh | TRPML1 blocker
O=C(O)CSCCOc1ccc(OCCSCC(=O)O)cc1 | 0.4 | 1.4% | 3.6 | 6 | -19% | 7% | -3
Cc1cc(/C=C\c2nc(O)c([N+](=O)[O-])c(=O)[nH]2)c(C)n1-c1ccccc1 | -0.1 | -1.7% | -0.2 | 3 | . | -4% | 2
CCOc1ccc2nc(NC(=O)C3=NN(c4ccccc4)C(=O)CC3)sc2c1 | 0.6 | 5.0% | -2.3 | -14 | 1.0% | 4% | -6
CC1(C(=O)O)CCCN(C(=O)c2cc3ccccc3s2)C1 (centres undefined) | -0.1 | 0.4% | . | . | -1.7% | . | -5

This is a random part of the collection. Share with any hit: about 4.4%.
